Screening results from PubChem.
HNF4A DNA FP: change in binding of human HNF4 alpha to DNA; HNF4a-FITC DNA binding, fluorescence polarization, 1 h; activity change, % at 10 µM; hit rate 0.3% among 360,000; AID 1224865; in the data active means activity change above about 30%, passing the limit was not always enough;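 further: controls were the assay level and a saturating level of protein; the project sought stronger binding though the title names inhibitors; some compounds called inactive have numbers as strong as hits; positive values seem to mean higher polarization but the record does not say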
Target sequence (P41235 whole entry, looked up): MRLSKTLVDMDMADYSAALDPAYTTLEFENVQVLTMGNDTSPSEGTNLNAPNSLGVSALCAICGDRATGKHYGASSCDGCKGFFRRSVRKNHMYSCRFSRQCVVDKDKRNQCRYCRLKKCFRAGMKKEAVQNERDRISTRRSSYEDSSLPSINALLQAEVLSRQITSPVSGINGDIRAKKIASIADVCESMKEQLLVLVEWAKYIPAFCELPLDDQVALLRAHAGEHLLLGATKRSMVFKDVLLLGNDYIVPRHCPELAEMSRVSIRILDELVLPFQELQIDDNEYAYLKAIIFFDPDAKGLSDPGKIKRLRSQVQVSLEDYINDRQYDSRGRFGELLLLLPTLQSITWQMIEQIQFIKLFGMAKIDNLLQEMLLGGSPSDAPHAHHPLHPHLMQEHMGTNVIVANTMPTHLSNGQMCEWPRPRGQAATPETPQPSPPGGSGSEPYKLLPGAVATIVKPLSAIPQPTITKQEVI
B2AR ag: activates human beta-2 adrenergic receptor causing internalization; P07550; hit rate 0.43% among 340,000; AID 504454; Am2.2-beta2AR cells, FAP receptor internalization, flow cytometry; reference of the scale not given here; response, % (test concentration not listed);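 active means response above a set limit, near 3 SD of response in nonfluorescent compounds, cut at about 42% in these data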;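 further: stock transfer was 100 nL into about 11 µL; a reference agonist was the positive control; negative values mostly stem from fluorescent compounds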
Target sequence (P07550 whole entry, looked up): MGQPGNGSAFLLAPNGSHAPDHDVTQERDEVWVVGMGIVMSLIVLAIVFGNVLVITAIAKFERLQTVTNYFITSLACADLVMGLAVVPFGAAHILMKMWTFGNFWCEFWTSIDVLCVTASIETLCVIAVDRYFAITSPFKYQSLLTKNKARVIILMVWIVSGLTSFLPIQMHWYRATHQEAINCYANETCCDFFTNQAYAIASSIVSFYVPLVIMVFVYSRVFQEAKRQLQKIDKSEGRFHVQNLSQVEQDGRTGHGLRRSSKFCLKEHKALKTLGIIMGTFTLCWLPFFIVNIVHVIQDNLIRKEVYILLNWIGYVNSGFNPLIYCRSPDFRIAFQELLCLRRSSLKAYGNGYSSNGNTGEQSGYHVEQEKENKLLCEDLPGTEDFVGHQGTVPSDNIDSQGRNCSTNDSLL
UCH37 DUB inh: inhibitors of human deubiquitinating enzyme UCH37 | hit rate 0.33% among 330,000 | AID 588478 | Q9Y5K5 | purified proteasome/UCH37, Ub-AMC cleavage fluorescence | inhibition, % (no concentration beside the values);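 active means mean of two replicates above 20%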;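 further: 0% = compound-free wells with enzyme and 100% = wells lacking proteasome; stock transfer was 100 nL into about 20 µL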
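Test system – human UCH37 enzyme supplied as purified proteasome complex · Incubation – 30 min preincubation with enzyme, 25 min cleavage at room temperature · Detection – AMC fluorescence from Ub-AMC cleavage, excitation 355 nm, emission 460 nm · Benchmarks – no-proteasome wells (full inhibition) and compound-free wells (no inhibition)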
Ecoli growth: E. coli growth inhibition; hit rate 0.21% among 330,000; OD600 absorbance (concentration not given with the values); AID 1053175; Escherichia coli growth, OD600, 23 h; active compounds read low;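 active means OD600 absorbance below the run mean of sample wells minus 3.6 SD, in any replicate, cut at about 0.56 in these data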;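 further: stock transfer was 300 nL into about 60 µL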
LANA-H2A inh: blocks KSHV LANA binding to histone H2A/H2B; Q9QR71; cell-free LANA-H2A/H2B peptide, fluorescence polarization; inhibition, % (test concentration not listed); hit rate 0.6% among 320,000; in the data active means inhibition mostly above about 10%, no sharp cut-off; inactive means mostly below about 6.7%;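 further: stock transfer was 7.5 nL into about 10 µL; 0% = median of vehicle wells and 100% = median of positive control wells; one replicate is shown; the record names a cut of 25% in any replicate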
FGF22 binding: binders of recombinant human FGF22 by thermal shift; AID 651658; calls only at 9.99 µM; Q9HCT0; hit rate 1.5% among 340,000; SYPRO orange fluorescence; percent of sucrose octasulfate shift, DMSO zero;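 active means melting point raised past a set limit in the mean and every replicate; three in four hits are not shown here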
Target sequence (Q9HCT0 whole entry, looked up): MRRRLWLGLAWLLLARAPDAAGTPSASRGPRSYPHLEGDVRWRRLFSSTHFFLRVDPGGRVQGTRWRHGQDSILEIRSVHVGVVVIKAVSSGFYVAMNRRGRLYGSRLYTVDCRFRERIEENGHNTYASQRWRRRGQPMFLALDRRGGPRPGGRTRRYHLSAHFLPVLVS
ALR inh: inhibitors of human sulfhydryl oxidase ALR | inhibition, % (test concentration not listed) | P55789 | purified ALR, DTT oxidation, H2O2 HRP-luminol luminescence | hit rate 3.8% among 290,000;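 active means mean and each replicate at 75% or more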;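 further: stock transfer was 7.5 nL into about 7.5 µL; 0% = neutral wells and 100% = wells with inactivated enzyme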
* marks the source's active call; other numbers are inactive results; i = inactive; · = not tested or not shown; & = joins results of further samples.

SMILES	HNF4A DNA FP	B2AR ag	UCH37 DUB inh	Ecoli growth	LANA-H2A inh	FGF22 binding	ALR inh
COc1cc(C(=O)Sc2ccc(C)cc2)cc(OC)c1OC	1.8	-2	4.0	0.7	0.8	·	54
Cc1ccc(C)c(OCCC(=O)OC(C)C(=O)Nc2c(C)n(C)n(-c3ccccc3)c2=O)c1 (stereo unspecified)	0.8	-5	0.7	0.69	0.7	i	-4
O=C(NC(=S)Nc1ccccc1N1CCOCC1)c1ccccc1F	-2.3	-2	2.4	0.66	2.5	i	4
CCCC(=O)N1CCN(c2nc3c(OC)ccc(Cl)c3s2)CC1	0.4	-6	7.2	0.68	0.7	i	-81
CCOC(=O)N1CCC(NC(=O)C2CCCN(C(=O)N3CCOc4ccccc43)C2)CC1 (stereo unspecified)	-2.2	3	0.8	0.71	3.3	·	-2
Cc1ccc(NC(=O)NNC(=O)c2cc3ccccc3cc2O)cc1	1.2	2	-26	0.69	-5.8	i	3
CC1=CC(C)(C)N2C(=O)C3(C(C#N)=C(N)Oc4cc(O)ccc43)c3c(C)c(C)cc1c32 (stereo unspecified)	-0.2	6	9.1	0.69	15	i	-7
Cc1ccc(OCC(=O)NCCCNC(=O)c2cccnc2)cc1	-1.6	1	-0.1	0.66	-1.3	i	-2
COc1ccc(/C=C/C(=O)N2CCN(c3ccccn3)CC2)cc1	-0.3	-1	2.9	0.66	3.0	i	-13
CC(C)CC(=O)N1CCN(Cc2ccc(Br)cc2)CC1	-0.1	3	3.3	0.68	-14	i	-24
O=c1/c(=C/c2ccc([N+](=O)[O-])cc2)sc2n1CCCN=2	-1.0	-2	·	·	-3.5	·	-3
O=C(CCc1ccccc1)Nc1cc(NC(=O)CCc2ccccc2)cc(C(=O)O)c1	-2.4	-2	0.7	0.71	-7.8	·	2
CCOC(=O)CN1C(=O)S/C(=C/c2ccc(OC)c([N+](=O)[O-])c2)C1=O	-0.3	-7	2.5	·	10	i	-1
CC1CCC2(CC1)NC(=O)N(CC(=O)c1cccn1C)C2=O (stereo unspecified)	-0.5	1	1.7	0.67	-0.1	·	-6
O=S(=O)(c1ccc(F)cc1F)N1CCN(CCO)CC1	-1.6	0	·	·	·	i	·
O=C(CSc1nnc(-c2ccc(Br)cc2)n1CCc1ccccc1)NC1CCS(=O)(=O)C1 (stereo unspecified)	-1.9	17	0.3	0.7	-1.7	·	1
O=C(Cn1cc(C(F)(F)F)ccc1=O)NCCc1ccc(Cl)cc1Cl	0.2	-3	3.8	0.7	-1.7	·	·
Fc1ccccc1NC(=S)Nc1ccc(CN2CCOCC2)cc1	-3.3	1	2.2	0.63	-1.3	·	·
CC(=O)N1CCc2cc(S(=O)(=O)CCC(=O)N(C)c3cc(C)ccc3C)ccc21	0.0	-6	3.6	0.69	2.7	i	24
COc1cccc(CN2CCN(c3cccc(C(F)(F)F)c3)CC2)c1OC	2.9	6	1.2	0.6	2.5	·	0
Cc1noc2ncnc(N3CCCC3)c12	-0.1	2	0.5	0.64	1.3	i	1
Cc1cccn2c(=O)c(C=O)c(N3CCC4(CC3)OCCO4)nc12	1.5	4	6.0	0.66	-3.4	i	-25
O=C(COC(=O)CCc1ccccc1)NCc1ccccc1	-1.7	-3	-2.4	0.72	2.4	i	-2
COc1cc(/C=C2/C(=O)ON=C2C)ccc1OCc1cccc(F)c1	-0.4	105*	4.2	0.66	-0.3	i	-2
COc1cccc(CNC(=O)c2ccccc2NC(=O)C2=C(C)OCCS2)c1OC	-0.9	14	1.0	0.72	-4.1	i	-10
COc1ccc(OC)c(-n2c(-c3ccn[nH]3)n[nH]c2=S)c1	3.1	6	-0.7	0.71	1.3	i	·
CCO[C@H]1OC(C(=O)N2CCN(Cc3ccccc3)CC2)=C[C@@H](C)[C@@H]1CCCO	-0.6	-4	2.5	·	5.6	i	12
COc1ccccc1CNC(=O)c1ccc(Cl)c(S(=O)(=O)N2CCCC2)c1	2.8	16	2.7	0.68	0.1	i	-3
Cc1cc(C(=O)N/N=C2/CC(C)CC(C)(C)C2)c(C)o1 (stereo unspecified)	2.9	1	·	·	0.9	·	17
CC1(C)CC2(C)OCCN2C(=S)N1 (stereo unspecified)	3.7&1.5	1	2.8	0.65	4.9	i	-2

Printed as active in B2AR ag, among the entries above:
| smiles | HNF4A DNA FP | B2AR ag | UCH37 DUB inh | LANA-H2A inh | FGF22 binding | ALR inh |
| --- | --- | --- | --- | --- | --- | --- |
| COc1cc(/C=C2/C(=O)ON=C2C)ccc1OCc1cccc(F)c1 | -0.4 | 105* | 4.2 | -0.3 | i | -2 |

Following part:
SMILES	HNF4A DNA FP	B2AR ag	UCH37 DUB inh	Ecoli growth	LANA-H2A inh	FGF22 binding	ALR inh
COc1ccc(-c2cc(C(=O)OCC(=O)N(C)C3CCS(=O)(=O)C3)c3ccccc3n2)cc1OC (stereo unspecified)	7.8	12	-4.6	0.68	5.3	i	·
CCCOc1ccc(C(F)(F)F)cc1NC(=O)CN1C(=O)C(=O)N(CC)C1=O	5.5	0	2.9	0.67	0.9	i	-3
CCc1cccc(CC)c1NC(=O)CO/N=C(\N)CC(=O)NC1CCCCC1	12	13	3.4	0.72	3.3	i	·
COc1ccc(OC)c(-n2c(SCC(=O)Nc3cc(C)on3)nnc2-c2c[nH]c3ccccc23)c1	0.5	19	3.9	0.76	5.0	i	·
O=C(Cc1ccccc1Cl)Nc1cc(S(=O)(=O)N2CCOCC2)ccc1N1CCOCC1	-1.3	1	-0.3	0.69	1.8	i	1
N#C/C(=C/c1ccc(-c2ccc(C(=O)O)c(Cl)c2)o1)C(=O)NCC1CCCO1 (stereo unspecified)	-2.4	-4	-3.4	0.69	5.5	i	-16
O=C(O/N=C1\CCS(=O)(=O)c2sccc21)c1ccc(F)cc1	-2.7	2	·	·	-5.9	i	-2
Cc1cc(C(=O)Nc2ccccn2)cs1	-2.4	-6	-2.8	0.59	0.6	·	16
O=C(N/N=C/c1ccccc1O)C1CC(=O)N(c2ccc(F)cc2)C1 (stereo unspecified)	5.3	-1	·	·	-0.1	i	2
Cc1cccc(NC(=O)CCc2ccc(C)o2)c1	1.7	6	0.9	0.71	1.8	·	12
COCCCNc1nc2c(c(=O)n(C)c(=O)n2C)n1Cc1cccc(OC)c1	0.8	-2	1.7	0.79	5.3	·	17
CNC(=O)COC(=O)/C=C/c1ccco1	-0.6	-6	2.7	0.62	-7.1	i	-2
CCOC(=O)c1nn(-c2ccccc2)c(=O)cc1OCC(=O)Nc1cc(C)ccc1C	-0.8	9	3.8	0.63	2.9	i	-26
O=C(NCc1ccco1)C1CCN(S(=O)(=O)c2cccc([N+](=O)[O-])c2)CC1	-2.2	0	-1.8	0.7	-1.4	i	-4
CCOC(=O)c1[nH]cnc1C(=O)Nc1cccc(Cl)c1	0.2	-3	-2.2	0.73	-1.3	i	-15

Reformatted as comma-separated lines: entries from further up.
canonical_smiles,HNF4A DNA FP,B2AR ag,UCH37 DUB inh,Ecoli growth,LANA-H2A inh,FGF22 binding,ALR inh
Cc1ccc(C)c(OCCC(=O)OC(C)C(=O)Nc2c(C)n(C)n(-c3ccccc3)c2=O)c1 (stereo unspecified),0.8,-5,0.7,0.69,0.7,i,-4
O=C(NC(=S)Nc1ccccc1N1CCOCC1)c1ccccc1F,-2.3,-2,2.4,0.66,2.5,i,4
CCCC(=O)N1CCN(c2nc3c(OC)ccc(Cl)c3s2)CC1,0.4,-6,7.2,0.68,0.7,i,-81

The list continues.
SMILES	HNF4A DNA FP	B2AR ag	UCH37 DUB inh	Ecoli growth	LANA-H2A inh	FGF22 binding	ALR inh
O=C(CSc1nc(-c2ccccc2)cs1)NCCN1C(=O)CSC1=O	-0.2	-3	5.6	0.7	-2.1	·	-6
COc1ccc([C@H]2CC(=O)C=C(c3ccc(C(=O)O)cc3)C2)cc1OC	3.5	-3	1.7	·	7.1	i	-4
CN(C)C(=O)c1nc2ccc(Cl)cn2c1CNCc1cccc(OC(F)(F)F)c1	2.3	4	-3.2	0.72	1.6	i	-1
COc1cc(Cl)c(C)cc1NC(=O)CSC1=NCCS1	0.8	-5	3.1	0.7	-4.7	i	·
O=C(O)/C=C/C(=O)Nc1ccc(C(=O)c2ccccc2)cc1	-1.7	-7	7.3	0.73	-2.9	i	1
Cc1cc(=O)[nH]c(SCc2ccccc2)n1	-4.3	-9	-0.5	0.66	-2.2	i	0
CCOC(=O)Cn1cc(/C=N/N2C(=O)C3C4C=CC(C4)C3C2=O)c2ccccc21 (stereo unspecified)	-3.0	12	·	·	-4.0	i	1
CCc1ccc(CNC(=O)C2CCC(=O)N2C2CCCCC2)cc1 (stereo unspecified)	-0.5	-1	0.2	0.73	-21	·	-4
CCOc1ccc(NC(=O)CCc2nnc3ccc(N4CCC(C)CC4)nn23)cc1	0.0	-16	5.0	0.67	3.0	i	-6
Nc1c(Cl)cc(-c2csc(N3CCCC3c3nc4cc(Cl)c(N5CCCCC5)cc4n3CCCO)n2)cc1Cl (stereo unspecified)	2.0	-1	0.8	0.66	3.0	i	-5
Cc1cccc(C)c1NC(=O)CCCCCC1NC(=O)NC1C (stereo unspecified)	-0.8	1	-2.0	0.7	0.1	i	-20
Cc1ccccc1N1CCN(S(=O)(=O)c2nnc(NC(=O)c3ccco3)s2)CC1	9.9	2	1.4	0.68	-1.2	i	14
CC1CCN(CC(O)COC2CC(C)CCC2C(C)C)CC1 (stereo unspecified)	-3.1	-3	5.8	0.67	1.4	i	-19
O=C(COc1ccc(S(=O)(=O)N2CCOCC2)cc1)NCCc1ccccc1	0.1	2	3.1	0.66	0.0	i	3
O=C(c1cccc([N+](=O)[O-])c1)N1CCN(c2ncccn2)CC1	-1.8	-4	4.2	0.67	2.3	i	8
Cc1ccc(N(C(=O)c2csnn2)C(C(=O)NCc2ccccc2)c2ccccn2)cc1 (stereo unspecified)	-1.4	1	0.4	0.63	-1.6	i	2
CC1(C)Cc2c(sc3ncnc(NNC(=S)NCc4ccccc4)c23)CO1	1.2	-7	0.6	0.7	-4.6	i	19
CCc1nn(C(C)C(=O)NCCN2CCCCCC2)c(=O)c2cc3occc3n12 (stereo unspecified)	2.1	0	3.4	0.66	-2.2	i	4
COc1ccc(C(=O)NCc2nnc(SCC(=O)c3ccccc3)n2C)cc1OC	1.3	-7	4.4	0.7	·	·	·
Cc1ccc(S(=O)(=O)N2CCSCCSCCSCCSCC2)cc1	-0.3	-13	·	·	·	i	·
Cc1cc([N+](=O)[O-])cc(/C=N\NC(=O)C2COc3ccccc3O2)c1O (stereo unspecified)	-1.8	-3	·	·	-3.7	i	·
O=C(Cn1cc2c(n1)CCCC2)NCc1cccnc1	-0.4	0	-0.6	0.77	-0.2	i	-3
COc1ccc(/C=N/N=C/c2ccc(OC)c(O)c2)cc1O	-4.5	3	·	·	-0.2	·	-8
CCOc1ccc(NC(=O)COc2cccc3c2CCN(Cc2cccnc2)C3=O)cc1	2.5	-6	4.4	0.71	5.8	i	-4
COc1ccc(C(=O)Nc2ccccc2[N+](=O)[O-])cc1S(=O)(=O)N1CCOCC1	1.7	10	1.4	0.71	-3.5	i	-10
CC(O)CNCc1cccc2ccccc12 (stereo unspecified)	3.9	6	0.8	0.69	-2.1	·	·
CC(C)CCNC(=O)c1c(CSc2ccc(Cl)cc2)noc1C(=O)NCc1ccccc1	-0.4	-3	2.2	0.69	-0.5	·	·
COc1ccc(C)cc1N(CC(=O)Nc1ccc(S(=O)(=O)N2CCOCC2)cc1)S(C)(=O)=O	0.0	-13	-0.1	0.66	4.8	i	1
CCN(CC(=O)Nc1ccccc1OC)C(=O)CN1C(=O)NC(C)(c2ccc3ccccc3c2)C1=O (stereo unspecified)	-2.3	-1	·	·	·	i	·
Cc1c(CC(=O)O)c(=O)oc2cc(OCc3nn[nH]n3)ccc12	-1.5	2	-82	0.66	2.5	·	2
Cc1ccccc1NC(=O)CNc1ccc(Cl)c(C(F)(F)F)c1	1.9	-6	2.0	0.65	1.7	·	5
CN1CCN(S(=O)(=O)c2cccc(C(=O)Nc3sccc3C(N)=O)c2)CC1	6.4	12	7.9	0.68	-5.9	i	58
COC(=O)[C@@H]1C[C@@]2(O)[C@@H](O)[C@@H](O)[C@@H](O)C[C@H]2N1CC(c1ccccc1)c1ccccc1	0.8	3	0.0	·	6.1	i	·

The list is partial (hit frequency here may not be typical).
